Screening data from PubChem BioAssay.
NPYLR7 agonist: activates Aedes aegypti NPYLR7 receptor; HEK293T NPYLR7/Galpha15, GCaMP6s calcium fluorescence; activation, % at 10 µM; actives 0.15% (n = 270,000); in the data active = activation above about 40%;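 note: 0% = vehicle and 100% = reference agonist at the receptor; some compounds past the cut are filed as inactive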
NPYLR7 agonist max-min: second read-out of NPYLR7 agonist, no call of its own (marks repeat the call); activation, %; measured here: Max-Min RFU normalised activation; some inactives read as strong as hits;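 span of the calcium signal over five minutes; 0% = vehicle and 100% = native peptide agonist; compound fluorescence can raise it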
An asterisk follows results filed as active; & = joins results of further samples. A portion of the library; rates above refer to the full screens.

cpd | smiles | NPYLR7 agonist | NPYLR7 agonist max-min
1 | Cc1nc(-c2ccc(S(=O)(=O)N3CCCC3)cc2)cs1 | 1 | 0
2 | Cc1ccc(NC(=O)CC(=O)N2C[C@@H](C)O[C@@H](C)C2)cc1Cl | -4 | -12
3 | O=C(NCCSCc1ccccc1)C1=CN2CCS(=O)(=O)N=C2C=C1 | 11 | 7
4 | Cc1cc(C)cc(CCC(=O)N2CCCC(CCC(=O)NCc3ccccc3F)C2)c1 (configuration not stated) | 3 | 3
5 | Cc1ccc(Cc2nc(CSc3ccc(C(F)(F)F)cn3)cs2)cc1 | -3 | -13
6 | Nc1nc(/C=C/c2ccccc2)cc(NCCO)n1 | 20 | 23
7 | CCOc1ccc(-c2ccc(=O)n(CCNC(=O)CCCc3ccccc3)n2)cc1 | -1 | -2
8 | CCOc1cc(/C=C2\C(=N)N3N=CSC3=NC2=O)ccc1OS(=O)(=O)c1ccccc1 | -2 | -3
9 | CCC(C)N(Cc1cc(NC(=O)c2cccs2)ccc1N(C)C)C(=O)c1cccc(C)c1 (configuration not stated) | 1 | 3
10 | NC(=O)[C@@H]1CC=CC[C@@H]1NC(=O)C1(Oc2ccc(Cl)cc2)CCNCC1 | -3 | -5
11 | COC(=O)C(C)(C)NS(=O)(=O)/C=C/c1ccccc1Cl | 6 | 10
12 | COc1ccc(C=NOCc2ccccc2)cc1OCc1ccccc1 | 5 | -2
13 | COc1cc(C)c(NC(=O)C(C)(C)c2ccccc2)cc1OC | 22 | 21
14 | O=C(COc1ccccc1)N1CCN(c2nccc(-c3ccc(-n4ccnc4)cc3)n2)CC1 | 6 | -2
15 | O=S(=O)(Nc1ccccc1OC(F)F)c1cccc2nsnc12 | 8 | 10
16 | O=C(Nc1noc2ncccc12)c1ccc(Cl)cc1 | 2 | 1
17 | COc1ccc2cc(CN(C)C(=O)CN3C(=O)NC4(CCCC4)C3=O)ccc2c1 | 1 | 5
18 | COc1ccc(NC(=O)CSc2nc(N)c(NC(=O)c3ccc(F)cc3)c(=O)[nH]2)cc1 | -2 | -7
19 | CN(C)S(=O)(=O)c1ccc(C(=O)N(Cc2cccnc2)c2nc3c(Cl)cccc3s2)cc1 | -7 | -8
20 | O=C(CSc1nnc(-c2cccs2)n1C1CC1)Nc1ccnn1C1CCCC1 | 1 | 1
21 | Cc1cccc(NC(=O)N2CCC(Cc3ccc(C(F)(F)F)cc3)CC2)c1 | 4 | 13
22 | COc1ccc(S(=O)(=O)N(CC(=O)N(CCc2c[nH]c3ccccc23)Cc2ccc(OC)c(OC)c2)C2CC2)cc1 | -3 | 0
23 | O=C1NC(=O)N(CCc2ccccc2)C(=O)/C1=C/c1cnn(-c2ccccc2)c1 | 1 | 2
24 | COc1ncccc1CNC(=O)NCc1ccc(C(=O)N2CCOCC2)cc1 | 1 | -4

Full records, looked up by structure. Order of values: NPYLR7 agonist, NPYLR7 agonist max-min
O=C(NCCSCc1ccccc1)C1=CN2CCS(=O)(=O)N=C2C=C1 in the list: 11, 7
O=C1NC(=O)N(CCc2ccccc2)C(=O)/C1=C/c1cnn(-c2ccccc2)c1 in the list: 1, 2
CN(C)S(=O)(=O)c1ccc(C(=O)N(Cc2cccnc2)c2nc3c(Cl)cccc3s2)cc1 in the list: -7, -8
Cc1ccc(Cc2nc(CSc3ccc(C(F)(F)F)cn3)cs2)cc1 in the list: -3, -13
NC(=O)[C@@H]1CC=CC[C@@H]1NC(=O)C1(Oc2ccc(Cl)cc2)CCNCC1 in the list: -3, -5

Next section
cpd | smiles | NPYLR7 agonist | NPYLR7 agonist max-min
25 | Cc1ccc(NS(C)(=O)=O)c(C(=O)NCc2ccccc2C)c1 | 1 | -1
26 | Cc1ccc(C)c(NC(=O)COc2coc(CN3CCc4ccccc4C3)cc2=O)c1 | 1 | -2
27 | COc1ccc(N(C)S(=O)(=O)c2ccc(OC)c(N3CCN(C(=O)CSc4ccccc4)CC3)c2)cc1 | 21 | 18
28 | CC1CCc2c(sc(NC(=O)c3ccccc3Cl)c2C(=O)Nc2ccccc2Cl)C1 (configuration not stated) | 1 | 5
29 | O=C(O)CSCc1ccc(Br)cc1F | 2 | -1
30 | C=CCN1C(=O)/C(=C\c2ccc(O)cc2)SC1=S | 55* | 42*
31 | Cc1cc(=O)n2nc(N3CCC(C(=O)N4CC(C)CC(C)C4)CC3)sc2n1 (configuration not stated) | 4 | 1
32 | O=C(C1CC1)N1CCC(C(=O)N2CCCC2c2ccccc2Cl)CC1 (configuration not stated) | 10 | 5
33 | Cc1cccnc1-n1c(SCC(=O)NC2CCCC2)nc2ccccc2c1=O | 6 | 1
34 | CCC(COC)NC(=O)C1(Oc2ccc(C)cc2)CCNCC1 (configuration not stated) | 0 | -2
35 | CCOC(=O)c1ccccc1OCc1cc(C2Nc3ccccc3C(=O)N2c2cccc3ccccc23)ccc1OC (configuration not stated) | 8 | 3
36 | COc1ccc2[nH]c3c(c2c1)CCN(C(=O)c1ccccc1SC(F)F)C3c1ccc(-c2ccccc2C(F)(F)F)o1 (configuration not stated) | 17 | 3
37 | CCOC(=O)C1(Cc2cccc(C(F)(F)F)c2)CCN(Cc2ccc(OC)c(OC)c2OC)CC1 | 0 | -3
38 | NC(=O)CSc1nnc(-c2ccc(F)cc2)n1CCN1CCOCC1 | 1 | 0
39 | COc1cccc(CN2CCn3nc(C(=O)NCc4cccc(F)c4)cc3C2=O)c1 | 9 | 1
40 | CCc1nnc2n1N(C(C)=O)C(c1ccc(Cl)c(Cl)c1)=C(C(C)=O)S2 | 5 | 0
41 | Cc1ccc(F)c(NC(=O)CCn2cnc3c(cnn3C)c2=O)c1 | 1 | -2
42 | CC1(C(=O)NCC2CCCCC2)CCN1C(=O)Cc1cc(F)ccc1F (configuration not stated) | 10 | 7
43 | COCCc1nc2ccc(C(=O)N3CCN(C(=O)c4cccs4)CC3)cc2o1 | -1 | -6
44 | Cc1ccc(C(=O)N2CCN(Cc3ccccc3)C(C#N)C2)c(O)c1 (configuration not stated) | 3 | 0
45 | Cc1ccc(/C=C/c2nc(SCC(C)C)n[nH]2)o1 | 7 | 5
46 | Cc1ccccc1Cn1c(=O)n(Cc2cccs2)c(=O)c2cccnc21 | 2 | 1
47 | COc1ccc(-c2cc(C(F)(F)F)n3nc(C(=O)Nc4cccc(O)c4)cc3n2)cc1OC | -2 | -6
48 | O=C(c1ccccc1O)N1CCCC(CCc2ccccc2C(F)(F)F)C1 (configuration not stated) | 1 | -5
49 | Clc1cccc(CN2CCCC2c2ccccn2)c1 (configuration not stated) | 1 | 0
50 | CN1CCCC2(CCN(C(=O)CCn3cncn3)C2)C1=O (configuration not stated) | -7 | -11
51 | CCSc1nc2c([nH]c3ccccc32)c(=O)n1-c1ccc([N+](=O)[O-])cc1 | 7 | 23
52 | COc1ccc(C(=O)Nc2ccc(-n3nc(OCC(C)C)nc3-c3ccc4c(c3)OCO4)cc2)c(OC)c1 | -4 | -2
53 | COc1ccccc1/C=C/C=C1\N=C(c2ccc(Cl)c(Cl)c2)OC1=O | 1 | -2
54 | COc1ccc(CN2CCN(c3ccc(Cl)cc3Cl)C(=O)C2C)cc1 (configuration not stated) | -4 | -5
55 | Cc1ccccc1CN1CCC(N2CCC(C(=O)NCCc3scnc3C)CC2)CC1 | 6 | 0
56 | CC(CCS(C)=O)NC(=O)Nc1ncc(-c2ccccc2)s1 (configuration not stated) | 2 | 1
57 | COc1ccc2c(c1)c1c3n2CC(O)CN=C3CCC1 (configuration not stated) | 0 | -1
58 | NCCn1cc(C(=O)N2CCCC3(CCNC3)C2)nn1 (configuration not stated) | -1 | -2
59 | CCCCCc1ccc(C(=O)Nc2cccc(-c3cccc(-c4ccc(F)cc4)n3)c2)cc1 | 14 | 21
60 | c1ccc(-c2nc3ccccc3nc2-c2ccccn2)nc1 | -2 | -4
61 | CCCC(C)NC(=O)c1ccccc1C(=O)c1ccc(F)cc1 (configuration not stated) | 1 | -3
62 | Cc1nc(NCCNC(=O)c2cccs2)cc(N2CCOCC2)n1 | 11 | 8
63 | Cc1ccc(S(=O)(=O)N(C)c2c(C)ccc(S(=O)(=O)NC(C)(C)C)c2C)cc1 | -7 | -10
64 | C=CCCC(O)CNCc1nc(-c2ccc(C)c(Cl)c2)no1 (configuration not stated) | 4 | 3
65 | O=c1n(CCOc2ccc(F)cc2)nnn1-c1ccccc1Cl | 6 | 4
66 | CCn1cc(C(=O)NC2CC(C)(OC)C2(C)C)cn1 (configuration not stated) | 5 | 4
67 | CC(C#N)Sc1nnc(Cc2c(F)cccc2Cl)o1 (configuration not stated) | 5 | 5
68 | N#Cc1ccccc1OCCSCc1nnnn1C1CC1 | 3 | -1
69 | Cc1cc(N2CCCN(Cc3cccnc3N)CC2)ccn1 | 5 | 2
70 | CCn1ccc(C(=O)N(CCCN2CCOCC2)c2nc3ccc(Cl)cc3s2)n1 | 2 | 0
71 | CC(NC(=O)c1c(O)nc2sccn2c1=O)c1ccccc1 (configuration not stated) | -1 | 5
72 | O=C(Nc1cccc(C(=O)OC2CC3CCC2C3)c1)NC1CC1 (configuration not stated) | 1 | -3
73 | COc1ccc(C(=O)Nc2cc(C)nn2-c2ncnc3c2cnn3-c2cccc(C)c2C)c(OC)c1 | 8 | 5
74 | N#Cc1c(NC(=O)c2cnn3c2NC(c2cccs2)CC3C(F)(F)F)sc2c1CCCC2 (configuration not stated) | 4 | 0
75 | Cc1ccc(C=C2N=C(c3ccc(N4CCCC4=O)cc3)OC2=O)o1 | 8 | 8
76 | CCNC(=S)N1CCC(C(NC(=O)c2cccs2)C(=O)NCCCOC)CC1 (configuration not stated) | -7 | 0
77 | Cc1cc(NC(=O)C2CCN(S(=O)(=O)c3cccs3)CC2)ccc1I | -6 | -9
78 | O=C(c1ccc(-n2cnnc2)cc1)N(Cc1ccccn1)CC1CCCO1 (configuration not stated) | 1 | -1
79 | O=S(=O)(c1ccc(F)cc1)N1CCN(c2nc3nccc(-c4cccs4)n3n2)CC1 | 27 | 40
80 | CC(C)Nc1ncc(-c2nccn2Cc2ccc(F)c(F)c2)cn1 | -3 | -7
81 | CC(C)c1ccc(C(=O)N(C)CCCN2c3ccccc3CCc3ccccc32)cc1 | -4 | -11
82 | CCCn1c(=O)c(C(=O)N2CCCC2)nn(-c2ccc(OC)c(OC)c2)c1=O | -1 | -3
83 | COC(=O)c1ccc(CSc2nnc(C)c3cnn(-c4ccc(F)cc4)c23)o1 | -10 | -16
84 | CCc1nn(C)c(Cl)c1CN1CCCC(c2nn(C)c(=O)n2CC)C1 (configuration not stated) | 14 | 6

Going on with the list:
cpd | smiles | NPYLR7 agonist | NPYLR7 agonist max-min
85 | CC(C)Oc1ccccc1NS(=O)(=O)N(C)C(C)C | 3 | 2
86 | COC(=NCc1ccccn1)NC(=O)c1cccc(C(F)(F)F)c1 | 9 | 15
87 | CN(Cc1ccc(OCC(N)=O)c(Cl)c1)Cc1cccc2ncccc12 | -4 | -8
88 | CCOCC(=O)N(Cc1cccc(C)c1)c1ccc2[nH]c(=O)[nH]c2c1 | 7 | 5
89 | Cc1cccc(C(=O)N2CCCC(Nc3ccc(F)cc3)C2)c1 (configuration not stated) | 19 | 18
90 | CC(C)c1ccc(NC2CCCN(C(=O)/C=C/c3ccccn3)C2)cc1 (configuration not stated) | 14&-5 | 17&-6
91 | COC(=O)[C@@H]1CCCN1c1ccc(-c2nc(COc3ccccc3)no2)cn1 | 19 | 6
92 | CC(C)n1c(Nc2ccccc2)nc2ccccc21 | 14 | 13
93 | CSc1ccc(C(=O)N2CCCC(C(=O)c3ccc(Cl)cc3C)C2)cc1 (configuration not stated) | 0 | -4
94 | COc1ccc(-c2cc(C(F)(F)F)n3ncc(C(=O)Nc4cccc(C(C)=O)c4)c3n2)cc1 | -1 | -3
95 | Cc1cccc(NC(=O)CCC(=O)N2CCC(c3ccccc3)=N2)n1 | 0 | 0
96 | CC(C)CC(=O)NNS(=O)(=O)c1cc(F)cc(F)c1 | 8 | -1
97 | CC1(C)CC(=O)C=C(Nc2ccccc2C(=O)N2CCCC2)C1 | -1 | -3
98 | CC(Oc1ccccc1F)C(=O)NCCn1nc(-c2cccs2)ccc1=O (configuration not stated) | -7 | -7
99 | Cc1cc2ccccc2n1CCC(=O)N1CCCCC1CCO (configuration not stated) | -2 | -13
100 | Cc1nc(N2CCOC(C(F)(F)F)C2)c2ccsc2n1 (configuration not stated) | -1 | -3
101 | Cc1ccc(-n2ncc(Oc3ccc(C)c(C)c3)c(Nc3cccc(C(=O)NCC4CC4)c3)c2=O)cc1 | 12 | 7
102 | Cc1cc(-c2cc3ccccc3o2)cnc1N | 2 | 2
103 | O=C(Cc1cnn(-c2ccccc2)c1)NCC1CCCCC1 | 1 | -2
104 | O=C(CCl)N1CCN(Cc2ccc(Cl)s2)CC1 | -3 | -9
105 | Cc1nn(C)c(Cl)c1CSc1n[nH]c(-c2ccccc2F)n1 | 3 | 1
106 | CCc1ccccc1-n1ccn(CC(=O)c2ccc(F)cc2)c(=O)c1=O | 6 | 2
107 | CCc1ccc(C(=O)N(CC(=O)N(CCc2ccc(OC)c(OC)c2)Cc2ccco2)C(C)CC)cc1 (configuration not stated) | -5 | -5
108 | Cn1cc(C2c3sc(=O)[nH]c3SC3C(=O)NC(=O)C32)c2ccccc21 (configuration not stated) | 2 | -1

Random excerpt: 2 records from the list.
cpd | smiles | NPYLR7 agonist | NPYLR7 agonist max-min
101 | Cc1ccc(-n2ncc(Oc3ccc(C)c(C)c3)c(Nc3cccc(C(=O)NCC4CC4)c3)c2=O)cc1 | 12 | 7
108 | Cn1cc(C2c3sc(=O)[nH]c3SC3C(=O)NC(=O)C32)c2ccccc21 (configuration not stated) | 2 | -1

Next part:
cpd | smiles | NPYLR7 agonist | NPYLR7 agonist max-min
109 | COCCCN(CC(=O)Nc1cc(C(C)(C)C)nn1-c1ccc(C)cc1C)C(=O)COc1ccc(Cl)cc1 | -2 | 2
110 | Cn1nc(-c2cccs2)cc1C(=O)N1C[C@H]2CC=CC[C@H]2C1 | 4 | 1
111 | Nc1nnc(SCc2ccc(C(F)(F)F)cc2)s1 | 0 | 8
112 | COc1ccc(CN2CCn3nc(C(=O)Nc4ccc(F)cc4)cc3C2=O)cc1 | -1 | 2
113 | COc1ccc(-c2cccc(NC(=O)c3ccc(C)cc3)c2)nn1 | -1 | -4
114 | CCc1nnc2sc(CCc3c(C)nn(-c4ccccc4)c3C)nn12 | -8 | -14
